Bioassay records from PubChem.
BJeLR viability = MLPCN primary cell-based screen for lethality selective to Ras in HRASV12 cells; BJeLR (HRASV12) viability, CellTiter-Glo ATP luminescence, 48 h; reference of the scale not given here; inhibition, % (test concentration not listed); 300,000 tested, 0.17% active; AID 1554, 2009;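 active means replicate mean above 50%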;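 further: 50 nL library stock added to about 25 µL; numbers are from one replicate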
Active calls of the source: *. Only part of the results is shown (hit frequency here may not be typical).

For O=C(O)CCC1c2cc3c4cc2OC2Oc5cc6c(cc51)C(CCC(=O)O)c1cc5c7cc1OC(O6)c1cc6cc(c1)Oc1cc(cc(C(=O)O)c1)Oc1cc8cc(c1)C(Oc1cc(c(cc1C5CCC(=O)O)C3CCC(=O)O)OC(O4)c1cc(cc(c1)Oc1cc(cc(C(=O)O)c1)O8)Oc1cc(cc(C(=O)O)c1)Oc1cc(cc2c1)Oc1cc(cc(C(=O)O)c1)O6)O7 (centres undefined) the results were BJeLR viability -13.
CC1(OC(=O)c2cnc3ccccc3n2)C(=O)C=C2C=C(C3CC3)OC=C2C1=O (centres undefined) was read as BJeLR viability 11.
Screening Cc1ccc(S(=O)(=O)N(C)S(=O)(=O)c2ccc(C#N)cc2)cc1 returned BJeLR viability -7.
`COc1cc(/C=C(\C#N)c2nc3c(s2)CCCC3)ccc1O` gave BJeLR viability -9.
C/C(=N\NC(=O)c1ccc(NS(=O)(=O)c2cccs2)cc1)c1ccccn1 was read as BJeLR viability 15.
Screening COC(=O)[C@@]1(Cc2ccc(F)cc2)[C@H]2c3cc(C(=O)N(C)C)n(CCc4ccccn4)c3C[C@H]2CN1C(=O)c1ccccc1 returned BJeLR viability -4.
Screening COc1cccc(C(=O)CC(=O)C(=O)Nc2cc(OC)c(OC)c(OC)c2)c1 returned BJeLR viability 0.
COc1ccc(CNC(=O)C/C(C)=N/NC(=O)c2cc(OC)cc(OC)c2)cc1 was read as BJeLR viability -6.
For COc1cc(OC)nc(/N=C/NO)n1 the results were BJeLR viability 1.
`Cc1ccc(S(=O)(=O)n2c3ccc(F)cc3c3nc(C)sc32)cc1` gave BJeLR viability -2.

Three records drawn at random from those above:
`Cc1ccc(S(=O)(=O)n2c3ccc(F)cc3c3nc(C)sc32)cc1` gave BJeLR viability -2.
Screening COC(=O)[C@@]1(Cc2ccc(F)cc2)[C@H]2c3cc(C(=O)N(C)C)n(CCc4ccccn4)c3C[C@H]2CN1C(=O)c1ccccc1 returned BJeLR viability -4.
Screening Cc1ccc(S(=O)(=O)N(C)S(=O)(=O)c2ccc(C#N)cc2)cc1 returned BJeLR viability -7.

(more compounds)
For Cc1ccc2sc(NNC(=O)c3cc(-c4cccs4)nc4ccccc34)nc2c1C the results were BJeLR viability 5.
Screening COc1ccc(Nc2nc(-c3sc(NC(C)=O)nc3C)cs2)cc1 returned BJeLR viability -8.
Screening Cc1nc(/N=C(\N)Nc2ccccc2)nc2ccccc12 returned BJeLR viability 0.
For C[C@@H](C(=O)N1CCN(C(=O)OC(C)(C)C)CC1)n1cc(-c2cn([C@@H](C)C(=O)N3CCN(C(=O)OC(C)(C)C)CC3)nn2)nn1 the results were BJeLR viability -8.
`C#CCOCCOCCOCCNc1nc(N2CCN(C(=O)[C@H](Cc3ccc(O)cc3)n3cc([C@@H](N)C(C)CC)nn3)CC2)nc(N2CCN(C(=O)[C@H](CCCCN)n3cc([C@@H](N)CC(C)C)nn3)CC2)n1` (some centres undefined) gave BJeLR viability 2.
For O=c1ccc2ccc(Oc3ccc([N+](=O)[O-])cc3[N+](=O)[O-])cc2o1 the results were BJeLR viability -6.
Screening ClCc1csc(N/N=C/c2cccs2)n1 returned BJeLR viability 11.
S=c1[nH]nc(-c2ccncc2)n1/N=C/c1cccc2ccccc12 was read as BJeLR viability -4.
For CCN(CC)CCOC(=O)c1ccc(NC(=S)NC(=O)/C=C/c2ccco2)cc1 the results were BJeLR viability 1.
`[O-][n+]1onc2c1CCC(=N/O)/C2=N\Nc1ccccc1` gave BJeLR viability -16.
CC(=O)Nc1cccc(C(=O)/C=C/c2ccc(/C=C/C(=O)c3cccc(NC(C)=O)c3)cc2)c1 was read as BJeLR viability 81*.
COCCNC(=O)/C(C#N)=c1\s/c(=C\c2ccccc2OC(F)F)c(=O)n1Cc1ccccc1 was read as BJeLR viability -1.
`CCOc1cc(N2CCOCC2)c(OCC)cc1NC(=O)COc1ccc2ccc(=O)oc2c1` gave BJeLR viability 1.
`COc1ccc(/C=C2/SC(=O)N(CCC(=O)Nc3ccc(C)cc3)C2=O)cc1OC` gave BJeLR viability -3.
For O=C(NC(=S)Nc1ccc2c(c1)C(=O)c1ccccc1C2=O)c1ccc(F)cc1 the results were BJeLR viability 3.
For Cc1ccc(C(=O)C2=C(O)C(=O)N(CCN3CCOCC3)C2c2ccccn2)o1 (centres undefined) the results were BJeLR viability -15.
`O=S1(=O)CCOCCN1Cc1ccc(Cl)cc1Cl` gave BJeLR viability 11.
`N#Cc1cc2c(nc1SCc1nc3ccccc3[nH]1)CCC2` gave BJeLR viability -4.
`NN=C1c2cc([N+](=O)[O-])ccc2-c2ccc([N+](=O)[O-])cc21` gave BJeLR viability -1.
Screening Cc1ccc(-n2c(-c3ccccc3)cc(/C=N/NC(=O)CC#N)c2-c2ccccc2)cc1 returned BJeLR viability 1.
Screening Cc1nc2sccn2c(=O)c1CCN1CCC(=C(c2ccccc2)c2ccc(F)cc2)CC1 returned BJeLR viability -12.
`O=C(NCc1ccc(/C=c2\sc3n(c2=O)CCN=3)o1)C(=O)Nc1ccccc1` gave BJeLR viability 7.
Screening O=C1NCCC/C1=N/Nc1ccc(F)cc1 returned BJeLR viability 10.
CCOc1ccc(NC(=S)N2CCn3c(nc4ccccc43)C2)cc1 was read as BJeLR viability 4.
Screening CC(C)n1c(=O)c(C=Nc2ccc(Cl)cc2)c(O)n(Cc2ccco2)c1=O returned BJeLR viability -2.
`CC(C)N1CCC2(CC1)C(C#N)=C(N)NC(S)=C2C#N` gave BJeLR viability 2.
Screening O=C1c2ccccc2S(=O)(=O)c2cc(N3CCc4ccccc4C3)ccc21 returned BJeLR viability 2.
`CN(C)CC#CCCCCCCC#CCN(C)C` gave BJeLR viability 10.
COc1ccc(OC)c(/C=N/n2c(C)nc3ccccc3c2=O)c1 was read as BJeLR viability 8.
`C#CCOCCOCCOCCNc1nc(N2CCN(C(=O)C([C@@H](C)CC)n3cc(C(N)CC(C)C)nn3)CC2)nc(N2CCN(C(=O)[C@H](CCCCN)n3cc(C(N)COC(=O)C(F)(F)F)nn3)CC2)n1` (some centres undefined) gave BJeLR viability 3.

The last five compounds of the section before open the next one.
`CC(C)N1CCC2(CC1)C(C#N)=C(N)NC(S)=C2C#N` gave BJeLR viability 2.
Screening O=C1c2ccccc2S(=O)(=O)c2cc(N3CCc4ccccc4C3)ccc21 returned BJeLR viability 2.
`CN(C)CC#CCCCCCCC#CCN(C)C` gave BJeLR viability 10.
COc1ccc(OC)c(/C=N/n2c(C)nc3ccccc3c2=O)c1 was read as BJeLR viability 8.
`C#CCOCCOCCOCCNc1nc(N2CCN(C(=O)C([C@@H](C)CC)n3cc(C(N)CC(C)C)nn3)CC2)nc(N2CCN(C(=O)[C@H](CCCCN)n3cc(C(N)COC(=O)C(F)(F)F)nn3)CC2)n1` (some centres undefined) gave BJeLR viability 3.
`CCSc1ncnc2c1sc1nc(-c3ccco3)c3c(c12)CC(C)(C)OC3` gave BJeLR viability 2.
`O=C(CC(=O)NC1CCCCC1)N/N=C/c1ccccc1F` gave BJeLR viability 3.
Screening FC(F)(F)c1ccc(Cl)c(NC(=S)N/N=C/c2ccccc2Cl)c1 returned BJeLR viability -3.
Screening COc1ccc(N2CCN(C(=O)c3ccc4c(c3)NC(=O)C(CSCc3c(F)cccc3Cl)N4)CC2)cc1 (centres undefined) returned BJeLR viability -3.
Screening CCCCCCC(=O)N(O)C1CC(=O)N(c2ccccc2)C1=O (centres undefined) returned BJeLR viability -4.
Screening Cc1nc2ccccc2c(=O)n1/N=C1\C(=O)N(C)c2ccccc21 returned BJeLR viability 0.
Screening CCOc1cc(/C=N/NC(=O)c2cc(C)[nH]n2)ccc1OC(=O)c1ccc([N+](=O)[O-])cc1 returned BJeLR viability -9.
For CCCC(=O)NC(Nc1ccccc1F)C(Cl)(Cl)Cl (centres undefined) the results were BJeLR viability 4.
Screening CCC1SC2=NCN(c3ccccc3)CN2C1=O (centres undefined) returned BJeLR viability -2.
Screening N[C@@H](Cc1cc(I)c(Oc2cc(I)c(O)c(I)c2)c(I)c1)C(=O)O returned BJeLR viability 1.
`O=C(CN1C(=O)c2ccccc2C1=O)Oc1ccc(F)cc1` gave BJeLR viability 2.
Screening COC(C[C@@H]1O[C@H]1[C@H](O)[C@@H](C)OCc1ccccc1)OC returned BJeLR viability 0.
Screening C=C1[C@@H](C)C2[C@H](Cc3ccccc3)NC(=O)[C@]23OC(=O)CC[C@H](O)CCC[C@H](C)C/C=C/[C@H]3[C@@H]1O (some centres undefined) returned BJeLR viability 44.
For CC(C)C1=CC2=CCC3C(C)(C(=O)O)CCCC3(C)C2CC1 (centres undefined) (tested in a mixture with another compound) the results were BJeLR viability -10.
Screening O=C(N/N=C1/CCCc2ccccc21)c1cc([N+](=O)[O-])cc([N+](=O)[O-])c1 returned BJeLR viability -14.
Screening C#CCOCCOCCOCCNc1nc(N2CCN(C(=O)[C@H](Cc3cc4ccccc4[nH]3)n3cc([C@@H](N)C(C)CC)nn3)CC2)nc(N2CCN(C(=O)[C@H](CCCCN)n3cc([C@@H](N)CC(C)C)nn3)CC2)n1 (some centres undefined) returned BJeLR viability 3.
For CC(C)(C)c1ccc(-c2nc(O)c(CC(=O)O)s2)cc1 the results were BJeLR viability -1.
For CCOc1cc(/C=N/NC(=O)N/N=C/c2ccc(O)c(OCC)c2)ccc1O the results were BJeLR viability 6.
`COc1ccc(/C=C2\CCCc3c2nc2ccccc2c3C(=O)O)cc1OC` gave BJeLR viability 20.
Screening COc1ccc(N2C(=O)NC(=O)/C(=C/c3ccc4c(c3)Cc3ccccc3-4)C2=O)cc1 returned BJeLR viability -25.
For Cc1ccc(C(=O)CCC(=O)O)cc1 the results were BJeLR viability -1.
CCC/C=C(\CCC)C(NP(=O)(c1ccccc1)c1ccccc1)c1ccccc1 (centres undefined) was read as BJeLR viability -5.
For O=C(NCCNC1CCN(Cc2ccccc2)CC1)c1cccs1 the results were BJeLR viability 9.
For O=C(CNc1c(Br)cc(Br)cc1Br)NN=C1CCCCC1 the results were BJeLR viability 13.
Screening COc1cc(/C=C2/C(=N)N3C(=NC2=O)SN=C3S(=O)(=O)C(C)C)ccc1OS(=O)(=O)c1ccccc1 returned BJeLR viability 1.
Screening Cc1noc(C(=O)Nc2ccc(Cl)cc2)c1Cl returned BJeLR viability 1.
O=C(Nc1ccc(F)cc1)C1=CC(=O)N2CCN=C2S1 was read as BJeLR viability 0.
`O=C(NCc1ccco1)c1ccc2nc3sc4c(c3c(=O)n2c1)CCCC4` gave BJeLR viability -1.
Screening Nc1ccc(C(=O)Oc2ccc([N+](=O)[O-])cc2)c(O)c1 returned BJeLR viability -1.
CC(=O)N1C(=O)N(C)C2C1N(C)C(=O)N2C(C)=O (centres undefined) was read as BJeLR viability -6.
Screening COC(=O)CCC(=O)OC1(C)C(=O)C2=CN(CCN3CCOCC3)C(c3ccc(OC)cc3)=CC2=C(Br)C1=O (centres undefined) returned BJeLR viability -12.
Screening CCOC(=O)/C(C#N)=C1\SS/C(=C(/C#N)C(=O)OCC)S1 returned BJeLR viability -1.
`COC(=O)c1ccc(CSCc2ccc(C#N)cc2)cc1` gave BJeLR viability 13.
Screening COc1ccc(/C=C/C(=O)c2ccc([N+](=O)[O-])o2)cc1OC returned BJeLR viability 70*.
Screening Cc1c(S(=O)(=O)c2ccccn2)c(N)n(Cc2ccccc2)c1C returned BJeLR viability -2.
For Cc1ccc(-c2ccc3c(c2)S(=O)(=O)c2ccccc2C3=O)cc1 the results were BJeLR viability 4.
`O=C(O)c1cccc(C(=O)O)n1` gave BJeLR viability -13.
`O=S(=O)(c1ccccc1)N1CCCc2ccccc21` gave BJeLR viability 0.
`COC(=O)C/C=C/[C@@H](C)[C@@H](/C=N/O[C@H](C)c1cn([C@@H]2COC[C@H]2O)nn1)NS(=O)(=O)c1ccc(C)cc1` gave BJeLR viability 1.
`Cc1cccc(-n2c(-c3ccco3)nc3nc4ccccc4nc32)c1` gave BJeLR viability -2.
O=C(N/N=C/c1cc([N+](=O)[O-])ccc1O)C1C2CCCCC21 (centres undefined) was read as BJeLR viability -3.
`Cc1ncc(CO)c2c1Oc1nc(-c3ccccc3)nc(SCC(=O)N(C)c3ccccc3)c1C2` gave BJeLR viability 4.
For C#CCOCCOCCOCCNc1nc(N2CCN(C(=O)[C@H](CCC(=O)O)n3cc(C(N)Cc4ccc(O)cc4)nn3)CC2)nc(N2CCN(C(=O)[C@H](Cc3ccc(O)cc3)n3cc(C(N)[C@H](C)CC)nn3)CC2)n1 (some centres undefined) the results were BJeLR viability -6.
For O=C(O)COc1ccc(-c2nccc(-c3cccs3)n2)cc1 the results were BJeLR viability 1.
O=c1[nH]c2cc3c(cc2cc1CN(CCc1ccccc1)Cc1nnnn1C1CCCC1)OCCO3 was read as BJeLR viability 2.
`CCOC(=O)CSc1nc2ccc(N3CCOCC3)cc2c(=O)n1Cc1ccc2c(c1)OCO2` gave BJeLR viability -22.
Screening CC1(C)C(=O)C=C[C@]2(C)[C@H]3CC[C@@]4(C)[C@H](c5ccoc5)OC(=O)[C@H]5O[C@]54[C@]3(C)[C@H](O)C[C@@H]12 returned BJeLR viability -8.
For CCc1ccccc1NC(=S)NN the results were BJeLR viability 2.
